From PubChem
KCNQ2 enhance: enhances the rat KCNQ2 potassium channel. CHO-K1 KCNQ2, FluxOR thallium flux fluorescence; stronger effect = higher value. AID 2239. B-score at 10 µM. O88943. 310,000 tested, 0.54% active;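 active = fluorescence ratio B-score at least 3 SD of library B-scores, with initial fluorescence B-score within 3 SD, cut at about 5.3 in these data; same plate scores as AID 2156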;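 note: B-score of peak minus minimum over baseline fluorescence ratio after K+ and Tl+ stimulus; positive B-score means potentiation of KCNQ2 with more thallium influx and brighter signal; only the inactives scoring about 0 or higher are listed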
Target sequence (O88943 whole entry, looked up): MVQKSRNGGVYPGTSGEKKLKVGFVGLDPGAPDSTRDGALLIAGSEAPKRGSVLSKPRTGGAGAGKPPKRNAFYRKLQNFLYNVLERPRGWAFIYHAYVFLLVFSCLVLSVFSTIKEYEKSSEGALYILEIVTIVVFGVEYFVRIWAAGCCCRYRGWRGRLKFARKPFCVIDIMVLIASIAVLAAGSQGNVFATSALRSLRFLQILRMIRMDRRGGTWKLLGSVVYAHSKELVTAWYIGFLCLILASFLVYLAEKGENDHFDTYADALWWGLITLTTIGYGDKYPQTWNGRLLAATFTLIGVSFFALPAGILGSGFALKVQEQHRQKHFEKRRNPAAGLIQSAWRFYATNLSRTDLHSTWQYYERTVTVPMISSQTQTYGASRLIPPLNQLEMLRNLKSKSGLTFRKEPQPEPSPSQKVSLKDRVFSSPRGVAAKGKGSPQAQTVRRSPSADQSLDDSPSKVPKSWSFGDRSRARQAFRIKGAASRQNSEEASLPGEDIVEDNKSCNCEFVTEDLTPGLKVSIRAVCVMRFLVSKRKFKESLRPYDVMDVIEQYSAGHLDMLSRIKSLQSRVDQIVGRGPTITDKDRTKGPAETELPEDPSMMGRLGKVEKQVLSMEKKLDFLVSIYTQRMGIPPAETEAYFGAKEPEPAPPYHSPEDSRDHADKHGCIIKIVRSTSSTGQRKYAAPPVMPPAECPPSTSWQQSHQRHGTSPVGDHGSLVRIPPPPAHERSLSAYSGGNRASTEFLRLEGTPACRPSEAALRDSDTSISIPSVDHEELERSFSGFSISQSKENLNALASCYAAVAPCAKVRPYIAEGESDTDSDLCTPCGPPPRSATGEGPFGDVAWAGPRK
KCNQ2 enhance baseline: second read-out of KCNQ2 enhance, no call of its own (marks repeat the call); B-score; compound at 10 µM; measured here: initial fluorescence intensity artifact check;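 brightness before thallium and not channel activity; 0 = typical well and far values either way flag optical interference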
* marks the source's active call; other numbers are inactive results. Some of the compounds tested; the hit share may differ from the screen's.

cpd	structure	KCNQ2 enhance	KCNQ2 enhance baseline
1	Cc1ccc(NC(=O)CSc2nc(=O)n(CCN(C)C)c3c2CCCC3)c(C)c1	0.65	-1.5
2	Cc1ccc(S(=O)(=O)N2CCN(c3ncnc4c3cnn4-c3ccccc3)CC2)cc1	0.32	-1.2
3	CCOc1ccccc1C(=O)NCC(=O)O	2.3	-0.04
4	COc1ccc(CCNC(=O)c2cnn3ccccc23)c(OC)c1OC	0.08	-0.61
5	CC(C)NC(=O)CSc1nc(N)c(NC(=O)c2ccccc2F)c(=O)[nH]1	1.9	0.12
6	O=C(CSc1ccc2nnc(-c3cccnc3)n2n1)Nc1ccccc1	1.5	-1
7	CCCn1c(N)c(N(CCOC)C(=O)c2ccc(N(C)S(=O)(=O)c3ccc(C)cc3)cc2)c(=O)[nH]c1=O	1.6	-1.4
8	Cc1ccc(S(=O)(=O)N2CCN(CC(=O)Nc3ccc(N4CCOCC4)cc3)CC2)cc1C	1.2	0.91
9	N/C(Cc1ccc([N+](=O)[O-])cc1)=N\OC(=O)CC1CCCCC1	8*	0.02*
10	CC(C)(C)c1ccc(S(=O)(=O)N2CCC(CO)(CC3CCCCO3)CC2)cc1 (centres undefined)	1.1	-0.94
11	O=C(Nc1ccccc1C(F)(F)F)c1cc(-c2ccc(O)cc2)on1	0.68	1.1
12	O=c1[nH]c(/C=C/c2ccccc2Cl)c([N+](=O)[O-])c(=O)[nH]1	1.6	-0.31
13	O=C(NCc1ccccc1)C(=O)NCC1COc2ccccc2O1 (centres undefined)	1.5	-0.26
14	CN(C)S(=O)(=O)N1CCN(C(=O)c2cccc(Br)c2)CC1	0.08	-3
15	COc1ccc(-n2c(C)nc3c(cnn3-c3ccc(Cl)cc3)c2=O)cc1	0.79	0.11
16	COc1ccc(N2CC(C(=O)N/N=C/c3cccs3)CC2=O)cc1 (centres undefined)	0.45	-1.6
17	CC(C)CCNC(=O)Cn1c(NCCC(C)C)nc2c1c(=O)n(C)c(=O)n2C	0.38	-0.53
18	CN(Cc1ccccc1)C(=O)CCCn1c(=O)[nH]c2cc(Cl)ccc2c1=O	1.1	1.9
19	CCC1S/C(=N\S(=O)(=O)c2cccs2)N(C2CCCCC2)C1=O (centres undefined)	1.5	-2.4
20	Nc1ccc(-c2nnc(-c3ccccc3)o2)cc1	0.56	-0.08
21	O=C(Nc1ncc2c(n1)-c1ccccc1OC2)c1ccc(F)cc1	0.08	-1
22	COc1ccc(N/C=C/C(=O)c2ccccc2)cc1	0.2	0.57
23	Cc1cc(CNC(=O)c2cccc([N+](=O)[O-])c2C)c2ccccc2n1	0.95	-1.7
24	CCOc1ccc(NC(=O)CN2C(=O)S/C(=C/c3cccn3C)C2=O)cc1	0.1	0.27
25	Cc1ccc(NC(=O)CSc2nnc(C)c(=O)[nH]2)cc1C	0.56	-0.28

Pulled one by one from the list above:
cpd	structure	KCNQ2 enhance	KCNQ2 enhance baseline
15	COc1ccc(-n2c(C)nc3c(cnn3-c3ccc(Cl)cc3)c2=O)cc1	0.79	0.11
9	N/C(Cc1ccc([N+](=O)[O-])cc1)=N\OC(=O)CC1CCCCC1	8*	0.02*
11	O=C(Nc1ccccc1C(F)(F)F)c1cc(-c2ccc(O)cc2)on1	0.68	1.1
4	COc1ccc(CCNC(=O)c2cnn3ccccc23)c(OC)c1OC	0.08	-0.61
12	O=c1[nH]c(/C=C/c2ccccc2Cl)c([N+](=O)[O-])c(=O)[nH]1	1.6	-0.31
16	COc1ccc(N2CC(C(=O)N/N=C/c3cccs3)CC2=O)cc1 (centres undefined)	0.45	-1.6

Next results
cpd	structure	KCNQ2 enhance	KCNQ2 enhance baseline
26	CCN1CCN(c2cc(C)c3cc(NC(=S)NCc4cccs4)ccc3n2)CC1	0.92	0.32
27	Cc1nc2ccc(NC(=S)N3CCCC3)cc2nc1C	1.4	0.1
28	COCCOc1cc(N(CC(=O)N(C)C)S(=O)(=O)c2ccccc2)c(Cl)cc1Cl	0.28	-0.39
29	O=C(COC(=O)c1cc(S(=O)(=O)N2CCOCC2)ccc1F)NCc1ccco1	0.96	0.55
30	CC1(C)CC(=O)C(C(=S)Nc2ccc(F)cc2)=C(NCCN2CCOCC2)C1	0.05	0.41
31	COc1cccc(Cn2cc(C(=O)NCCN(C)C)nn2)c1	0.09	-0.23
32	Cc1ccc(-n2cc[nH]c2=S)cc1C	0.57	0.65
33	C/C=C\C=C\C(=O)Nc1cccc(C2=NOC3(C2)C[C@@H](C(N)=O)N(C(=O)C(c2ccccc2)c2ccccc2)C3)c1 (some centres undefined)	0.58	-1.6
34	N#Cc1cccc(NC(=O)COC(=O)c2ccccc2Sc2ccccc2C#N)c1	0.31	-1.4
35	COc1cc(-c2nc(-c3ccncc3)no2)cc(OC)c1OC	0.79	0.15
36	CCN1C(=O)C(CC(=O)Nc2ccc(OC)cc2)N(Cc2cccs2)C1=S (centres undefined)	0.54	-0.11
37	CN1C(=O)CC(C(=O)Nc2ccccc2F)SC1=Nc1ccc2c(c1)OCO2 (centres undefined)	2.4	0.26
38	O=C(CCS(=O)(=O)c1ccccc1)N1CCOCC1	0.27	-0.53
39	O=C(CN(c1cccc(Br)c1)S(=O)(=O)c1ccccc1)N/N=C/c1cc([N+](=O)[O-])ccc1O	0.01	-0.92
40	NC(N)=Nc1ccc(N=C(N)N)cc1	1.2	-0.56
41	Cc1ccc(-c2cc(C(=O)Nc3c(C)n(C)n(-c4ccccc4)c3=O)no2)cc1	0.02	-0.18
42	Nc1c(N=O)c(=O)[nH]c(=O)n1-c1ccccc1	0.85	-1.8
43	CCOC(=O)CCCCC(=O)NC(CO)C(=O)NC (centres undefined)	0.04	0.56
44	O=C(CS(=O)(=O)Cc1ccccc1)NCc1ccco1	0.68	-0.4
45	CCN(CC)CCOCCOC(=O)C(CC)(CC)c1ccccc1	0.66	0.9
46	CCCSc1nc2c3c(sc2c(=O)[nH]1)CC(C)(CC)OC3 (centres undefined)	0.35	-1.5
47	O=Cc1cccn1-c1ccccc1	0.02	-0.37
48	O=C(CSc1nnnn1-c1cccc2c1CCCC2)N1CCOCC1	1.3	-0.79
49	O=C(CSc1nnnn1Cc1ccccc1)NCCc1ccccc1	0.18	0.39
50	O=C(CNC(=O)c1nc[nH]c1C(=O)NCC(=O)OCc1ccccc1)OCc1ccccc1	0.7	-0.01

Additional structures:
cpd	structure	KCNQ2 enhance	KCNQ2 enhance baseline
51	CCOc1ccc(N(CC)C(=O)Cc2c(C(=O)O)n(C)c3ccccc23)cc1	0.79	0.89
52	CCOc1ccc(N(CC(=O)N2CCN(Cc3ccccc3)CC2)S(C)(=O)=O)cc1	0.74	-0.78
53	CC/C(CC(C)(C)c1ccccc1)=N\O	1.2	-0.88
54	COC(=O)c1scc(C)c1NC(=O)c1cccc(C#N)c1	0.06	-0.81
55	O=C(O)CS(=O)(=O)CC(=O)O	2.2	-0.18
56	COc1ccc(C(=O)N(Cc2ccco2)Cc2cc3cc(C)ccc3[nH]c2=O)cc1OC	0.17	-1.8
57	CCc1ccc(OCC(=O)NC(NC(=S)Nc2ccc(Cl)cc2)C(Cl)(Cl)Cl)cc1 (centres undefined)	0.2	0.04
58	COC(=O)c1c(NC(=O)c2ccc(C)cc2)csc1C	0.72	-1.8
59	CC(C)(C)S(=O)(=O)c1ccccc1-c1noc(-c2ccccc2)c1C(N)=O	1	1.4
60	CC(C)Sc1sc(C(=O)O)c(-c2ccc(Cl)cc2)c1C#N	0.44	0.13
61	CC(C)(C)c1ccc(C(=O)Cn2cnnc2C#N)cc1	0.6	1.1
62	Cc1c(C)n(C)c2ccc([N+](=O)[O-])cc12	1.3	-1.7
63	CC(C)CC(=O)Nc1ccc(-c2nc3ccccc3c(=O)o2)cc1	0.12	-0.53
64	Cc1cccn2c(=O)c3cc(C(=O)NCc4cccnc4)c(=N)n(CC4CCCO4)c3nc12 (centres undefined)	0.81	-0.6
65	CC(=O)c1n[nH]nc1Nc1nc(C)cc(C)n1	0.51	-0.01
66	CCOc1cccc(CN2CCCC(C(=O)Nc3cccc(-n4cccn4)c3)C2)c1 (centres undefined)	2.1	-1.7
67	O=C(O)/C=C/C(=O)Nc1ccc(Cc2ccc(NC(=O)/C=C/C(=O)O)cc2)cc1	0.46	-0.23
68	Cc1ccc(C)c(N2CCN(C(=S)Nc3ccc4nc(N5CCN(C)CC5)cc(C)c4c3)CC2)c1	1.5	-0.02
69	CC(=O)Nc1ccccc1OCC(O)CS(=O)(=O)c1ccc(C(F)(F)F)cn1 (centres undefined)	0.29	-0.02
70	CN(Cc1ccon1)C(=O)C1CCC(=O)N(CCc2ccc(Cl)cc2)C1 (centres undefined)	2	-0.53
71	COc1ccc(N2CCN(C(c3cccs3)C(C)NC(=O)C(=O)N3CCCC3)CC2)cc1 (centres undefined)	0.17	0.78
72	CC(=O)c1cccc(NC(=O)Nc2ccc3c(c2)OCO3)c1	0.97	-0.31
73	CC(C)(CNC(=O)C1CCCN1C(=O)c1cccs1)N1CCOCC1 (centres undefined)	0.82	0.19
74	O=C(NCCN1C(=O)S/C(=C\c2ccc(F)cc2)C1=O)C1CCN(S(=O)(=O)c2cccs2)CC1	1.2	1
75	O=S(=O)(N1CCOCC1)n1cnc2ccccc21	1.3	-0.4

(continued)
cpd	structure	KCNQ2 enhance	KCNQ2 enhance baseline
76	CCc1cc(=O)oc2c3c(cc(OCC(=O)NCc4ccco4)c12)OC(C)(C)CC3	3.4	-1.2
77	O=C(CN1C(=O)CCC1=O)NCC12CC3CC(CC(C3)C1)C2	2.8	-0.94
78	Cn1c(C(=O)Nc2ccc3c(c2)OCO3)cc2sccc21	1.1	-0.37
79	CS(=O)(=O)N1CCN(c2nc(-c3ccccc3)cs2)CC1	1.2	0.43
80	O=C(CSC(=S)N1CCCCC1)Nc1ncc2c(n1)CCCC2=O	0.78	-0.31
81	Cc1cc2ncn(N)c2cc1C	1.3	-0.01
82	Cc1occc1C(=O)Nc1cccc2ccccc12	11*	1*
83	COc1ccccc1Nc1nn2c(=O)c3ccc(C(=O)N4CCCCC4)cc3nc2s1	0.53	0.12
84	COc1ccc(-n2c(=O)c3c4c(sc3n3c(=S)[nH]nc23)CCC4)cc1	0.13	0.01
85	O=C(CCC(=O)Nc1ccccc1)NNC(=O)COc1ccccc1	0.3	-2.4
86	CCCC(C(=O)N(C)CC(=O)Nc1ccc(N2CCOCC2)cc1)c1ccccc1 (centres undefined)	1.3	-0.57
87	CCOc1ccc(NC(=O)c2ccccc2OCC(=O)c2ccc(C)cc2)cc1	0.65	2.6
88	COCCN(C(=O)CCC(=O)Nc1ccccn1)C(C(=O)NC(C)(C)C)c1ccc(OC)cc1 (centres undefined)	1.2	0.46
89	O=C(Nc1ncccn1)C12CC3CC(CC(C3)C1)C2	0.44	-1.1
90	COc1ccccc1-c1nc(SCC(=O)Nc2cc(C)on2)c2c(=O)n(C)c(=O)n(C)c2n1	0.32	0.68
91	COCCn1nnnc1C(c1ccc(Cl)cc1)N1CCSCC1 (centres undefined)	1	-2.2
92	CCOC(=O)c1ccccc1NC(=O)CSc1ncc(C(=O)OCC)c(N)n1	0.91	0.42
93	Fc1ccc2c(c1)C(c1ccncc1)=NNC(c1ccccc1)=N2	1.4	0.57
94	O=C(NNC(=O)c1ccc(NC(=O)C2CC2)cc1)c1ccc(F)cc1	0.54	-1.1
95	CC(=O)Nc1ncc2c(n1)CC(c1ccco1)CC2=O (centres undefined)	1.1	-0.53
96	Nc1c(C(=O)Nc2ccc(F)cc2)nnn1-c1cccc(C(F)(F)F)c1	0.32	-2.3
97	NC(=O)C1CCN(c2nc(C3CC3)nc3c2nnn3Cc2ccccc2)CC1	1.5	-0.2
98	NC(=O)CSc1nnc(Cn2c(=O)sc3ccccc32)n1CCc1ccccc1	0.01	0.28
99	NC(=O)CCn1c(=O)oc2ccccc21	1.4	-0.07
100	CCn1cnc2cc(NCc3ccncc3)ccc21	0.12	-0.02

Other structures.
cpd	structure	KCNQ2 enhance	KCNQ2 enhance baseline
101	O=C(O)CCC(=O)OCC1CCCCC1	2.2	-0.31
102	CC(=O)Nc1cccc(/C(C)=N/NC(=S)NC(C)C)c1	2.9	-0.98
103	NC(=O)COc1ccccc1C1=NO[C@@](CC(=O)O)(C(=O)Nc2ccc3c(c2)OCCO3)C1	0.56	-2.8
104	COc1cc(/C=N/Nc2nc(=O)[nH]nc2C)cc(OC)c1O	0.55	-1
105	COC(=O)c1cccc(N(C(=O)c2ccco2)C(C(=O)NC2CCCC2)c2ccco2)c1 (centres undefined)	0.88	-1.3
106	CCOc1ccc(/C=C2/SC(=O)NC2=S)cc1	26*	-0.42*
107	O=C(c1c[nH]c(C(=O)C(Cl)(Cl)Cl)c1)c1ccccc1Br	0.98	0.29
108	CN(C)/C=N/c1nc2nccc(-c3ccc(F)cc3)n2n1	1.5	-0.89
109	CC(=O)c1cccc(NC(=O)/C(=C\c2cccnc2)NC(=O)c2ccccc2)c1	0.45	-0.11
110	CC(=O)NCc1ccc(S(=O)(=O)N/N=C/c2ccc(N(C)C)cc2)cc1	0.07	-0.11
111	Cc1ccc(NC(=O)[C@H](C)NC(=O)C2CCN(C(=O)[C@H](CC(C)C)NC(=O)OC(C)(C)C)CC2)cc1	0.53	-0.16
112	O=C(Nc1cccc(NC(=O)c2ncn[nH]2)c1)c1cccc(Cl)c1	0.04	0.17
